GIV-Gai inh: blocks GIV peptide binding to rat Galpha-i3; P08753; Galpha-i3/FITC-GIV peptide fluorescence polarization, 90 min; active compounds read low; scaled: aluminum fluoride 0%, vehicle 100%; percent of control (FP), % (concentration not given with the values); 0.42% of 210,000 active; AID 1224905;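 active = replicate mean at 85% of control or lower, very high polarization wells dropped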;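 note: wells of about 15 µL received 100 nL stock; the first replicate is given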
Target sequence (P08753 whole entry, looked up): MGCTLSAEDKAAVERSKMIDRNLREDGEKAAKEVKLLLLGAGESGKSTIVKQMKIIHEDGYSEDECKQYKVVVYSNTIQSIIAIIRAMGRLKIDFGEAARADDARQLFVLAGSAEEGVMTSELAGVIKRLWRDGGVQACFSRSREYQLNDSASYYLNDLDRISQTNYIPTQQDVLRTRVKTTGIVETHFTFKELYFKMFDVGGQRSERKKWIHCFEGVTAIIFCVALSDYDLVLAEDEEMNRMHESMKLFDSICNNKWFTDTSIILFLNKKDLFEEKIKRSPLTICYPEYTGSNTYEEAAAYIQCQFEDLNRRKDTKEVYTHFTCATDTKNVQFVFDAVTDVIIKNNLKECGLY
HCMV NEC inh: disrupts HCMV UL50-UL53 complex binding. HTRF UL50-UL53 interaction, normalized percent inhibition. inhibition, % (no concentration beside the values). 0.15% of 190,000 active. AID 1918969;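 active = both replicates at 50% or more, plus weaker picks with an unusually low signal ratio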;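 note: stock transfer was 100 nL into about 20 µL; 0% = negative control wells and 100% = wells with untagged competitor protein; inactives centre near -12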
Sa growth 42C: S. aureus growth inhibition; S. aureus RN4220 growth, OD600, 20 h, 42 °C; active compounds read low; relative growth, % (no concentration beside the values); 0.53% of 170,000 active;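 active = growth at 42 °C up to 50% and 20 or more points under that at 30 °C, or under 10% at both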;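 note: 300 nL library stock went into each well; scaled to the means of positive and negative controls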
Sa growth 42C second temp: also measured in Sa growth 42C; calls as there; relative growth, %; measured here: growth at 30 °C;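 optical density after 20 h as mean of two plates; 100% = untreated growth and lower means inhibition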
The depositor's hits bear a star; · = no result given; & = joins results of further samples. Outcome played no part in choosing rows; any-hit rate near 0.85%.

SMILES	GIV-Gai inh	HCMV NEC inh	Sa growth 42C second temp	Sa growth 42C
COc1ccccc1C1CCN(C(=O)c2ccc(N)cc2)CC1	105	-2	99	101
OC(CNC1CCCCC1)CN1c2ccccc2Sc2ccccc21 (stereo not given)	106	·	86	103
O=S(=O)(c1ccc2c(c1)CCCC2)N1CCC2(CC1)Nc1cc(F)ccc1-n1cccc12	106	13	·	·
CC(C)NC(=S)n1cc(C(=O)c2cc(Cl)cc(Cl)c2O)cn1	·	-27	81	110
CC1=C(C(=O)Nc2ccc3c(c2)OCCO3)C2(CCN(C(C)C)CC2)OC1=O	109	-30	·	·
CC(C)(C)OC(=O)N1CCC(c2c(C(=O)NCCc3ccccc3)cnn2-c2ccc(F)cc2F)CC1	106	·	89	93
COCC(C)Nc1ncnc2c1c(-c1ccccc1)cn2-c1ccc(C)c(Cl)c1 (stereo not given)	101	·	86	96
O=C(NN1CC(=O)N(C2CCCC2)C1=O)c1cccc2ncccc12	102	5	93	118
CC(C)(C)OC(=O)N1CCN(C(=O)Nc2ccc(C(=O)O)cc2)CC1	102	·	86	90
CCOC(=O)c1nc(Nc2ccc(Br)c(C)c2)c2c(C)noc2n1	101	-9	·	·
Cc1cc(-n2c(C)cc(C(=O)COc3ccc4ccc(=O)oc4c3)c2C)no1	·	-21	91	76
Cn1nc(C(=O)N2CCOCC2)c2c1CCN(S(=O)(=O)c1cccc3nsnc13)C2	102	-96	·	·
C=CCN(C(=O)c1ccc(OC)cc1)c1nnc(-c2ccncc2)s1	106	-5	80	77
O=C(Nc1ccc(-c2nc3ccccc3o2)cc1)c1ccc(N2C(=O)C3C4C=CC(C4)C3C2=O)cc1 (stereo not given)	108	3	·	·
O=C(CCSc1nnnn1-c1ccccc1)Nc1ccc2c(c1)OCO2	·	-30	80	84
CN(C)C(=O)COC(=O)c1ccc2ccccc2n1	·	-72	90	80
COc1cccc(C2Nc3ccccc3-n3cc4c(=O)n(C)c(=O)n(C)c4c32)c1O (stereo not given)	106	-13	·	·
COC(=O)C1=C(C)NC(C)=C(C(=O)OC)C1c1ccccc1	101&106	3&16	99	108
NC(=O)c1sc(-c2ccsc2)cc1NC(=O)/C=C/c1ccsc1	104	-5	89	114
O=C(O)Cc1csc(-c2cnccn2)n1	102	-21	104	105
CCC(=O)Nn1cnc2c(c1=O)C1(CCCCC1)Cc1ccccc1-2	99	-3	94	99
CN1C(=O)C(=Cc2cc3c(cc2Cl)OCO3)C(=O)N(C)C1=S	109	-17	10	61
Cn1ncc2c(Nc3cccc(C#N)c3)ncnc21	106	·	85	90
Cc1ccccc1C1CC(=O)c2cnc(N3CCc4ccccc43)nc2C1 (stereo not given)	97	-22	·	·

Molecules listed so far containing a COOH group, in the order listed:
SMILES	GIV-Gai inh	HCMV NEC inh	Sa growth 42C second temp	Sa growth 42C
CC(C)(C)OC(=O)N1CCN(C(=O)Nc2ccc(C(=O)O)cc2)CC1	102	·	86	90
O=C(O)Cc1csc(-c2cnccn2)n1	102	-21	104	105

Additional structures follow.
SMILES	GIV-Gai inh	HCMV NEC inh	Sa growth 42C second temp	Sa growth 42C
CNS(=O)(=O)c1cn(CC(=O)Nc2ccc(OC)cc2OC)cc1S(=O)(=O)NC	96	·	87	87
CSc1ncc(C(=O)Nc2ccnn2Cc2ccccn2)n1-c1ccc(F)cc1	·	-2	87	83
O=C(Nc1ccc(Br)cc1)N1Cc2cccn2-c2ccccc21	99	-13	·	·
CCCn1c(=NC(=O)C(C)(C)C)sc2cc3c(cc21)OCO3	102	-16	92	107
Cc1ccc(NC(=O)CSc2c3c(nc4ccccc24)CCCC3)cc1F	103	-48	86	96
O=C(CCc1ccccc1)N1CCN(Cc2ccc3c(c2)OCO3)CC1	104	-2	103	110
COc1ccc(NC(=O)C(NS(=O)(=O)c2ccc3c(c2)oc(=O)n3C)C(C)C)cc1OC (stereo not given)	107	1	89	97
CC(Sc1nnnn1-c1ccccc1)C(=O)NCCC1=CCCCC1 (stereo not given)	·	-26	92	102
Cc1cc2nc(C)c(=O)n(Cc3ccc(C(=O)NCCc4c[nH]c5ccccc45)cc3)c2cc1C	108	-29	·	·
Cn1c(N)c(C(=O)Cn2cc(S(=O)(=O)N3CCCC3)ccc2=O)c(=O)n(C)c1=O	·	-39	80	119
O=C(Cn1nnnc1-c1ccccc1F)Nc1ccc(OC(F)(F)F)cc1	97	-32	89	93
CN(C(=O)c1cc(-c2ccco2)on1)c1ccccc1	98	-4	84	90
Cc1cccc(NC(=O)NCCn2c(-c3ccc(F)cc3)nc3cccnc32)c1C	112	-25	·	·
CCNc1nc(-c2cc3ccccc3o2)cs1	·	-45	100	106
Cc1cc(=O)oc2cc(NC(=O)C3CCCC3)ccc12	114	17	92	107
Cc1nc2cc(NC(=O)NC(C)(C)C)ccc2n1C	99	-23	89	90
C=CCNc1sc(C(=O)c2ccc(Cl)cc2)c(N)c1C#N	·	-18	84	104
Clc1cccc(-c2nnc(-c3cccc(Cl)c3)o2)c1	109	3	104	96
Cn1cccc1Cc1nnc(SCC(=O)N2CCc3ccccc32)n1CCc1ccccc1	101	·	93	110
CCc1nnc(SCc2nc(-c3ccc(OC)c(OC)c3)oc2C)c2cc3sc(C)cc3n12	103	·	72	102
COc1ccccc1CCNC(=O)c1cc2ccccn2n1	114	·	102	97
Cc1ccc(C2CCN(C(=O)Nc3ccc(Cl)c(Cl)c3)C2)cc1 (stereo not given)	104	·	88	94
CCOC(=O)c1cn(CC(=O)Nc2ccc(C)cc2)c2cnccc2c1=O	132	-24	·	·
CN(CC(=O)Nc1cccnc1)S(=O)(=O)c1ccc(Br)cc1	106	-10	92	77
COc1ccc(-c2nc3ccccc3s2)cc1NC(=O)c1cc2ccccc2o1	110	-44	85	94
Cc1ccc(-n2nc3c(N4CCCC(C(=O)NCCCN5CCCC5=O)C4)nnc(C)c3c2C)cc1 (stereo not given)	117	-40	82	117
CCOC(=O)C1CCN(C(=O)c2cc(-c3ccncc3)n(-c3ccc(F)cc3)n2)CC1	102	-18	·	·
CCCC(=O)Nc1cccc(-c2nc3ccccc3o2)c1	108	-4	76	92
CC(=O)Nc1ccc(C2SCC(=O)N2Cc2ccc3c(c2)OCO3)cc1 (stereo not given)	·	-12	95	96
CC1=C(C(=O)NCc2ccc(Cl)cc2)C2(CCCCC2)OC1=O	102	·	89	113
O=c1c(Cl)c(O)c2ccccc2n1Cc1ccccc1	97	32	99	75
COc1ccc(CCNC(=O)Cn2c(=O)c3sccc3n(CC(=O)Nc3cccc(C(F)(F)F)c3)c2=O)cc1OC	105	0	92	105
Cn1c(=O)n(C)c2cc(/C=C(\C#N)C(N)=C(C#N)C#N)ccc21	105	25	77	84
Cc1cccc(-c2noc(-c3ccccc3)n2)c1	108	11	102	106
CCc1ccc(-c2nc(CS(=O)CC(=O)NCc3ccccc3)c(C)o2)cc1 (stereo not given)	106	-10	99	116
Cc1ccc(CS(=O)(=O)CCC(=O)NC2CC2)cc1	102	·	89	130
Cc1ccc(N2CCN(C(=O)c3ccc(N4CCCS4(=O)=O)cc3)CC2)c(C)c1	98	-21	·	·
CC(=O)Nc1cc2cc(-n3cccc3)ccc2oc1=O	106	·	99	121
Oc1c(C(c2ccc(F)cc2)N2CCN(Cc3ccccc3)CC2)sc2nc(-c3ccco3)nn12 (stereo not given)	97	·	91	92
O=C1Nc2ccccc2C12OCCO2	109	-8	·	·

Reformatted field by field: part of the list above
CCc1ccc(-c2nc(CS(=O)CC(=O)NCc3ccccc3)c(C)o2)cc1 (stereo not given)
  GIV-Gai inh = 106; HCMV NEC inh = -10; Sa growth 42C second temp = 99; Sa growth 42C = 116
Cc1ccc(CS(=O)(=O)CCC(=O)NC2CC2)cc1
  GIV-Gai inh = 102; HCMV NEC inh = ·; Sa growth 42C second temp = 89; Sa growth 42C = 130
Cc1ccc(N2CCN(C(=O)c3ccc(N4CCCS4(=O)=O)cc3)CC2)c(C)c1
  GIV-Gai inh = 98; HCMV NEC inh = -21; Sa growth 42C second temp = ·; Sa growth 42C = ·
CC(=O)Nc1cc2cc(-n3cccc3)ccc2oc1=O
  GIV-Gai inh = 106; HCMV NEC inh = ·; Sa growth 42C second temp = 99; Sa growth 42C = 121

The listing continues:
SMILES	GIV-Gai inh	HCMV NEC inh	Sa growth 42C second temp	Sa growth 42C
CN(CC1CCCO1)C1CCN(C(=O)Cn2c(=O)oc3ccccc32)CC1 (stereo not given)	104	-2	·	·
CCCN(C(=O)c1nn(-c2ccc(C)cc2)c(=O)c2c1c1ccccc1n2C)c1ccccc1C	99	3	94	105
COc1ccc(NC(=O)N2CCN(Cc3ccc4nccnc4c3)CC2)cc1	98	-73	·	·
O=C1CC(c2ccccc2)Cc2[nH]c(=O)c(C(=O)Nc3cccc(Cl)c3)cc21 (stereo not given)	105	·	100	118
COc1ccc(OC)c(CNS(=O)(=O)c2ccc(-c3coc(C)n3)cc2)c1	106	·	86	117
O=C(Nc1ccc(N2CCOCC2)cc1)Nc1cccc(C(F)(F)F)c1	·	-1	90	86
C/C=C(\C)C(=O)Nc1ccc(N2CCOCC2)cc1	107	·	93	101
CCOC(=O)C1=C(C)N=c2s/c(=C\c3ccc(-c4ccccc4C(=O)O)o3)c(=O)n2C1c1ccc2c(c1)OCO2 (stereo not given)	294	-29	·	·
S=C(NCCc1ccccc1)NNc1nc2ccccc2o1	·	-10	79	83
COc1ccc(CNC(=O)CCc2c(C)c3cc4c(C)coc4c(C)c3oc2=O)cc1OC	102	-3	90	105
COc1cccc(-c2cc(C(=O)NCc3cccnc3)on2)c1	100	-25	83	91
CN1CCC(N(C)C(=O)CCCc2nc3ccccc3s2)CC1	·	-18	91	100
COCCCNC(=O)c1c(NC(=O)Cc2coc3c(C)c(C)ccc23)sc2c1CCCC2	109	3	94	116
COc1ccc(CCNC(=O)CCc2c(C)nc3c(-c4ccc(F)cc4)c(C)nn3c2C)cc1OC	98	13	96	105
COC(=O)c1ccc(Oc2nc(N(C)C)nc(N(C)C)n2)cc1	97	-4	·	·
CC(C)(C)OC(=O)N1CCC2(CC1)C(C#N)=C(N)OC1=C2C(=O)CCC1	106	-13	72	95
Cc1nc(Cc2nnc(SCc3cc4ccccc4nc3Cl)o2)cs1	·	-28	87	73
CCOC(=O)COc1ccc2c(c1)c(C(=O)OCC)c(C)n2CC	102	-3	90	98
COc1cccc(CNC(=O)CCCn2nc(C)n3c(cc4sccc43)c2=O)c1	100	-6	86	88
COc1ccc(NC(=O)c2scc(S(=O)(=O)C(C)C)c2N)cc1	105	10	77	92
CCOc1ccc(NC(=O)CC2C(=O)N(Cc3ccco3)C(=S)N2CCNC(C)=O)cc1 (stereo not given)	104	-5	85	92
O=C(O)/C=C/C(=O)c1ccc(F)cc1	·	-1	92	91
CCOC(=O)C(Cc1c[nH]c2ccccc12)NS(=O)(=O)c1ccc(Cl)cc1 (stereo not given)	98	-16	·	·
COc1ccc(S(=O)(=O)NCc2ccc(C(=O)NCCCN3CC(C)CC(C)C3)cc2)cc1 (stereo not given)	95	1	95	112
NC(=O)COC(=O)c1cc2nc(Nc3ccccc3)sc2s1	·	-10	92	91
CC(C)Cn1cc(NC(=O)N2CCN(c3cccc(Cl)c3)CC2)c2ccccc2c1=O	102	·	81	112
Cc1ccc(S(=O)(=O)Nc2ccc3[nH]ccc3c2)cc1	102	-3	88	110
COc1cc(-c2noc(-c3cc4cc(F)ccc4oc3=O)n2)cc(OC)c1OC	101	·	82	85
CCOc1ccc(S(=O)(=O)N2CCC(C(=O)N/N=C/c3cc(C)n(CC(C)C)c3C)CC2)cc1	·	-12	91	88
CCCn1c(=O)[nH]c2cc(-c3noc(/C=C/c4ccc(OC)c(OC)c4)n3)ccc21	103	-37	·	·
CSc1nc(C)nc(N(C)C)c1C#N	102	-16	85	108
Cc1cc(C)cc(Oc2nc3ccccn3c(=O)c2/C=C(\C#N)c2nc3ccccc3s2)c1	104	-81	88	90
NS(=O)(=O)c1cc(C(=O)NCCc2ccc3c(c2)OCCO3)ccc1Cl	·	-39	89	92
CCOc1ccc(NC(=O)CSc2nc3ccccc3nc2N2CCOCC2)cc1	108	1	97	89
C=CCNC(=O)Cn1c(-c2ccc(F)cc2)nc2ccccc21	103	2	102	121
O=C(O)c1cccc(NCc2cccnc2)c1	97	-24	88	86
CCSc1ncc(Cl)c(C(=O)Nc2sc3c(c2C(=O)NC)CCCC3)n1	104	-11	92	111
O=C(c1nc(-c2ccccc2)n(-c2cccc(Cl)c2)n1)N1CCN(c2ccccc2)CC1	102	4	·	·
NC(=O)C1CCN(c2cnc3ccccc3n2)CC1	102	-7	96	111
Cc1nn(C)c2c1c(-c1ccccc1)cc(=O)n2Cc1c(F)cccc1Cl	97	·	92	83
CCC(C)c1ccccc1N=Cc1cccs1 (stereo not given)	·	9	103	93
COC(=O)/C=C1\SC(=Nc2ccc(OC)cc2)NC1=O	103	-10	81	116
CSc1nc2cc(Oc3cccc(Cl)c3Cl)c(Cl)cc2[nH]1	·	-2&-69	56	37
O=S(=O)(c1ccc(Br)cc1)N1CCN(c2cc(-c3cccc(F)c3)ncn2)CC1	102	-12	·	·
